GALR2 agonist = activates the human galanin receptor 2; O43603; 140,000 compounds, 0.48% hits; GALR2-expressing cells, agonist activation read-out; activation, %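 (tested at 5 µM)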;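 active means above mean plus 3 SD of all compounds, about 5% in these data, not always enough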;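 further: 0% = vehicle buffer wells and 100% = reference agonist at full effect; tested in CHO reporter cells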
Target sequence (O43603 whole entry, looked up): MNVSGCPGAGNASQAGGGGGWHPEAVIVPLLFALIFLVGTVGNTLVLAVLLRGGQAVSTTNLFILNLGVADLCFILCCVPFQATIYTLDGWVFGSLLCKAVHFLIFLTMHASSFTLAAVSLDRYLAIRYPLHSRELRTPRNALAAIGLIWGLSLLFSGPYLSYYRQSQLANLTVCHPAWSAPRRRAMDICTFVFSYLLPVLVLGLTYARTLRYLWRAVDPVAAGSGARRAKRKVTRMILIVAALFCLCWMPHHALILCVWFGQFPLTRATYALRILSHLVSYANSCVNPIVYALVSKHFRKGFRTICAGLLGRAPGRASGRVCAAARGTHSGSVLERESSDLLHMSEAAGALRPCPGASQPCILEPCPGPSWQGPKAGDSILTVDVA
HSV replic up = increases HSV replication in cells | AID 1956 | HSV replication augmentation in cells, fold increase | maximum fold increase | 220,000 compounds, 0.005% hits;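 active means peak rise of 1.5-fold or more in the series; tested in PC3 cells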;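 further: first round at 10 µM; read as green reporter fluorescence; hits show the peak of a series up to 25 µM; 1 = signal of infected wells without compound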
Insulin prom inh = TRM-6 insulin promoter activity inhibition; 130,000 compounds, 0.9% hits; inhibition, % at 2 µM; TRM-6 cells (human fetal islet line), insulin promoter-eGFP reporter, imaging; reporter expression induced with tamoxifen;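 active means inhibition above the mean plus 3 SD, with well images judged a real hit on visual review, cut at about 60% in these data, passing the limit was not always enough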
PKD1 kinase inh = blocks activity of human protein kinase D1 | PKD1 kinase fluorescence polarization assay | inhibition, %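 (about 10 µM by stock and volumes)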 | AID 797 | 200,000 compounds, 0.056% hits;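 active means inhibition of 50% or more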;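 further: controls were vehicle for no effect and a reference inhibitor for full effect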
RGS16-Gao HTS = RGS16-Galphao interaction regulator (human); AID 1441; bead-based flow cytometry RGS16-Galphao binding, fluorescence; actives lie on both sides; 220,000 compounds, 0.38% hits; O15492+P09471; binding response (% of control), % at 10 µM;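 active means below 25% or above 175%, edge rows of some plates excepted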;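 further: Galphao activated by GDP with aluminum fluoride before binding; 100% = wells without compound and 0% = beads without RGS; some results beyond the cut were filed as inactive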
Target sequence (O15492 whole entry, looked up): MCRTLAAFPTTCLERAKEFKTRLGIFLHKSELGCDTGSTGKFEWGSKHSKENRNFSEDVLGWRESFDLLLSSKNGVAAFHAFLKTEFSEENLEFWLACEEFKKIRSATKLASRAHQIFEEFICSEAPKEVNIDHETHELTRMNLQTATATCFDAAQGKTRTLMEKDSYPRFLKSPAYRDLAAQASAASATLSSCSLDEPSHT
Target sequence (P09471 whole entry, looked up): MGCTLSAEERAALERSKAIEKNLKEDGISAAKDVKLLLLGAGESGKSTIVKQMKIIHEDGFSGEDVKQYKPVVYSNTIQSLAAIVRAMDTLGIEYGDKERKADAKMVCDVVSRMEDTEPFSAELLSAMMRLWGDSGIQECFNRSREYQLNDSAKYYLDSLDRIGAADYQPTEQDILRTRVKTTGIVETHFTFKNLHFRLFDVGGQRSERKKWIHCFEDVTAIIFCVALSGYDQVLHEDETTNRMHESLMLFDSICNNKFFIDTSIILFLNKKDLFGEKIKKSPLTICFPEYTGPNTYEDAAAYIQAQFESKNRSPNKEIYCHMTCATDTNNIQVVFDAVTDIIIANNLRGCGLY
Insulin prom inh cell count = recorded beside Insulin prom inh, whose call it bears; normalized cell count, %; measured here: cell count, toxicity; reference of the scale not given here;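 cells exposed to compound for 48 h; stained nuclei by imaging scaled within each plate; lower means fewer cells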
HSV replic up primary fold = second read-out of HSV replic up, no call of its own (marks repeat the call); fold increase; compound at 10 µM; measured here: primary screen fold increase 10 uM; tested in PC3 cells;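 GFP signal in the first replicate; 1 = infected wells without compound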
The depositor's hits bear a star; i = inactive; . = not tested or not shown. Hits appear at their usual frequency; overall some 1.1% were active at least once.

The line under a structure holds: GALR2 agonist	HSV replic up	HSV replic up primary fold	Insulin prom inh	Insulin prom inh cell count	PKD1 kinase inh	RGS16-Gao HTS
> O=C(c1cccs1)N1CCC(C(=O)N2CCN(Cc3ccc4c(c3)OCO4)CC2)CC1
  .	i	0.98	.	.	-2	101
> CC1=CC(=O)c2c(O)ccc(O)c2C1=O
  .	i	0.96	.	.	-4	55
> Cc1cccc(Nc2ccccc2C(=O)NCc2ccco2)c1C
  -1.6	i	0.98	-42	70	-4	100
> O=C(Nc1sc2c(c1C(=O)N1CCOCC1)CCCCC2)c1cccnc1
  .	i	1.1	9	95	12	108
> CCCS(=O)(=O)c1c(S(=O)(=O)CCC)c2c(N)cccn2c1C(=O)OC
  .	i	1.2	.	.	-6	98
> CCN1CCc2nc(N)sc2C1
  .	i	0.93	.	.	-4	70
> COc1ccc(CCNC(=O)c2cccnc2)cc1
  -0.1	i	1	41	97	-2	94
> CCCCC(=O)Nc1nn(CC(C)C)c2nc3ccccc3cc12
  -1.2	i	0.77	-16	81	-5	101
> Cc1ccc(NC(=O)c2cc(S(=O)(=O)Nc3ccc(C)cc3)cs2)cc1
  -1.1	i	0.95	-7	127	2	.
> CCOC(=O)c1c(NC(=O)CSc2nnc(C)s2)sc2c1CCN(C)C2
  -2.6	i	1.2	-62	98	-5	104
> Cc1ccc(CNC(=O)C2CC(c3ccccc3F)=NO2)cc1 (stereo unspecified)
  .	i	0.92	.	.	.	101
> COCCCNS(=O)(=O)c1ccc(OC)c(Cl)c1Cl
  -3.1	i	0.96	-134	86	2	114
> Cc1ccc(OCc2nnc(SCc3ccc(C#N)cc3)n2-c2ccc(C)cc2)cc1
  -2.6	i	1	-28	139	2	106
> CCOC(=O)c1c(C)[nH]c(C)c1C(=O)COC(=O)c1ccc(S(=O)(=O)N(CC)CC)cc1
  -0.4	i	0.75	6	265	-7	100
> Cc1c(C(C)C)c(=O)n(-c2ccc(S(=O)(=O)NC3CCCCC3)cc2)n1C
  .	i	0.91	.	.	5	99

Next results follow:
The line under a structure holds: GALR2 agonist	HSV replic up	HSV replic up primary fold	Insulin prom inh	Insulin prom inh cell count	PKD1 kinase inh	RGS16-Gao HTS
> COc1cc(CC(=O)O)ccc1OCc1ccccc1
  .	i	0.95	.	.	.	98
> COC(=O)c1cc(C(=O)Nc2nnc(CC(C)(C)C)s2)cc([N+](=O)[O-])c1
  -1.8	i	1.1	0	130	-2	117
> Cc1cc(Cl)ccc1OCC(=O)N1CCN(c2ncccn2)CC1
  .	i	1.1	56	85	8	106
> Cn1c(=O)c2[nH]c(CNCc3ccccc3Cl)nc2n(C)c1=O
  1.1	i	0.98	-74	88	-6	121
> CCOC(=O)C1=C(C(C)=O)C(c2cccnc2)C(C#N)=C(N)O1 (stereo unspecified)
  -0.1	i	1.1	6	112	0	97
> CCOC(=O)c1[nH]c2ccccc2c1NC(=S)Nc1cc(C)ccc1C
  -2.4	.	.	76*	70*	-2	106
> O=C(c1cc2cc([N+](=O)[O-])ccc2oc1=O)N1CCOCC1
  .	i	0.99	14	110	2	101
> COc1ccc(CCN2C(=O)CS/C2=N\NC(=O)c2ccc(C(C)(C)C)cc2)cc1OC
  -0.7	i	0.89	-97	100	1	96
> COCCC1CCCCN1Cc1cn(-c2ccccc2)nc1-c1ccc2c(c1)OCO2 (stereo unspecified)
  .	i	0.85	.	.	0	106
> O=S1(=O)N=C(N2CCOCC2)c2ccccc21
  -1.2	i	1.1	55	51	-2	108
> CCOP(=O)(OCC)c1nc(-c2cccc3ccccc23)oc1NCCc1ccc(OC)cc1
  3.4	i	0.9	-44	88	-6	107
> C=CCNC(=O)NC(=S)c1ccccc1
  -2.8	i	1.1	-14	59	4	98
> COc1ccccc1N1CCN(c2nnc(-c3ccc(F)cc3)c3ccccc23)CC1
  -2.0	i	0.79	-70	55	-2	82
> COc1cccc(NC(=O)c2oc3ccccc3c2NC(=O)c2ccc3c(c2)OCO3)c1
  -2.8	i	0.94	25	55	-17	100
> COc1cc(/C=C/C(=O)N(C)c2ccccc2C(=O)O)cc(OC)c1OC
  -1.0	i	0.97	-24	177	-3	96

Additional entries follow.
The line under a structure holds: GALR2 agonist	HSV replic up	HSV replic up primary fold	Insulin prom inh	Insulin prom inh cell count	PKD1 kinase inh	RGS16-Gao HTS
> Cc1cccc2c1[nH]c1nc(N/N=C\c3ccco3)nnc12
  2.7	.	.	-11	133	-4	94
> Cc1cccc(C2NC(=O)c3c(sc(C)c3C)N2)c1O (stereo unspecified)
  -0.8	i	1.1	53	62	-9	105
> COc1ccc2[nH]c3c(=O)n(CCCCC(=O)NCCC(C)C)c(=S)[nH]c3c2c1
  .	i	0.93	.	.	2	98
> O=C1CCC(=O)N1c1ccc(S(=O)(=O)N2CCCC2)cc1
  .	i	1	.	.	1	100
> Cc1cc([N+](=O)[O-])ccc1NC(=O)Nc1ccc(F)cc1F
  .	i	1	-58	165	-3	99
> Cn1c(CN2CCCCC2)c(C#N)c2ccccc21
  -0.6	i	0.9	6	89	-14	100
> C/C(=N\NC(=O)c1ccc(NS(=O)(=O)c2cccs2)cc1)c1ccncc1
  .	i	0.93	-40	129	3	96
> CC(=O)C(=Cc1ccc(O)cc1)C(C)=O
  .	i	1	.	.	.	103
> CS(=O)(=O)n1nc(C(=O)N2CCOCC2)nc1N
  -1.6	i	1	-11	85	-4	57
> NC(=O)c1ccsc1NC(=O)C1CCCN1S(=O)(=O)c1ccc(Cl)cc1 (stereo unspecified)
  -1.1	i	0.8	-27	120	1	97
> CC(=O)NCCCc1nc2ccccc2n1Cc1ccc(C)cc1
  1.6	i	1	i	51	-7	102
> O=c1c(Cc2c(F)cccc2Cl)c(O)ccn1CCCn1ccnc1
  .	i	1	.	.	-1	103
> CCOC(=O)N1CCN(C(=O)CCN2C(=O)COc3ccc(C)cc32)CC1
  -0.5	i	0.85	32	76	-7	99
> Cc1c(-c2ccccn2)c(=O)[nH]n1-c1ccc(F)cc1
  .	i	1.2	49	62	5	99
> Cc1cc(C)cc(NC(=O)CC2NCCNC2=O)c1 (stereo unspecified)
  -0.4	i	1.1	.	.	-4	102

The list continues.
The line under a structure holds: GALR2 agonist	HSV replic up	HSV replic up primary fold	Insulin prom inh	Insulin prom inh cell count	PKD1 kinase inh	RGS16-Gao HTS
> CCOC(=O)c1c(N)nn(C(=O)c2ccccc2)c1-c1ccccc1
  .	i	1	.	.	-8	102
> Cc1nn(Cc2ccc([N+](=O)[O-])cc2)c(=O)n1-c1ccc(Cl)cc1
  .	i	0.94	.	.	1	100
> CCn1cc(C(=O)O)c(=O)c2cc(F)c(N3CCN(S(=O)(=O)c4ccc5c(c4)OCCO5)CC3)cc21
  .	i	1	44	94	3	87
> Cc1ccc(NC(=O)CSc2nnc(C)c(=O)n2N)cc1
  .	i	0.97	-36	146	-8	109
> COC(=O)c1cn[nH]c1NC(=S)Nc1ccc(Cl)c(Cl)c1
  -7.3	i	0.67	14	78	-7	101
> Cc1cc(C)n(CC(=O)N/N=C/c2c[nH]c3ccccc23)n1
  .	i	0.98	.	.	.	93
> CCCOc1cccc(C(=O)N(Cc2ccco2)C2CCS(=O)(=O)C2)c1 (stereo unspecified)
  0.9	i	1.1	-52	93	-4	177
> COCCn1c(=S)[nH]c2cc(C(=O)N3CCc4ccccc4C3)ccc2c1=O
  .	i	0.86	-20	108	-1	110
> O=C(c1ccc(N2CCCCC2)c([N+](=O)[O-])c1)N1CCOCC1
  -3.1	i	0.88	-25	133	15	72
> Cc1cc(Cl)c(S(=O)(=O)N2CCCC2)cc1OCC(=O)NC1CCCCC1
  -0.3	i	0.88	3	76	-3	98
> C=COCCNC(=O)Nc1ccc(Cl)c(Cl)c1
  -0.8	i	0.98	57	120	-2	30
> Brc1ccc(-c2nnc3n2CCCCC3)cc1
  -1.1	i	0.98	-15	81	-4	71
> CCOC(=O)c1ccc(NC(=O)NCCN2CCCCC2)cc1
  -1.2	i	0.82	.	.	-9	117
> NC(=O)CSc1nc(-c2ccccc2)nc2c1CCCC2
  .	i	0.9	-47	107	-1	98
> COc1ccccc1N(CC(O)Cn1ccnc1C)S(=O)(=O)c1ccc(C)cc1 (stereo unspecified)
  .	i	0.95	.	.	6	108

Structural class, those above containing a COOH group
The line under a structure holds: GALR2 agonist	HSV replic up	HSV replic up primary fold	Insulin prom inh	Insulin prom inh cell count	PKD1 kinase inh	RGS16-Gao HTS
> COc1cc(CC(=O)O)ccc1OCc1ccccc1
  .	i	0.95	.	.	.	98
> COc1cc(/C=C/C(=O)N(C)c2ccccc2C(=O)O)cc(OC)c1OC
  -1.0	i	0.97	-24	177	-3	96
> CCn1cc(C(=O)O)c(=O)c2cc(F)c(N3CCN(S(=O)(=O)c4ccc5c(c4)OCCO5)CC3)cc21
  .	i	1	44	94	3	87

More records.
The line under a structure holds: GALR2 agonist	HSV replic up	HSV replic up primary fold	Insulin prom inh	Insulin prom inh cell count	PKD1 kinase inh	RGS16-Gao HTS
> CC(C)(C)NC(=O)Cn1c(SCC(=O)N2CCCCCC2)nc2ccccc21
  -1.9	i	0.94	-33	109	3	101
> CCCc1nnc(NC(=O)C(C)N2C(=O)C3C4C=CC(C4)C3C2=O)s1 (stereo unspecified)
  -0.4	i	1	-18	132	-3	97
> Cc1ccc(-n2nnc3c(=O)n(Cc4ccccn4)cnc32)cc1C
  .	i	0.86	.	.	4	102
> CNC(=S)N/N=C/c1cn(Cc2c(F)cccc2Cl)c2ccccc12
  -1.1	i	0.74	31	85	-4	104
> CCCN(CCC)CCNS(=O)(=O)c1ccc2c(c1)oc(=O)n2C
  0.1	i	0.88	9	79	-13	98
> CCC(Oc1ccc2c(c1)C(=O)CC(C)(C)O2)C(=O)NCCN1CCCCCC1 (stereo unspecified)
  -2.0	.	.	.	.	2	99
> Cc1cc(-n2[nH]c(C)c(C)c2=O)nc(-c2ccccc2O)n1
  -1.8	i	0.81	.	.	27	30
> COc1ccc(COC(=O)Nc2c(SC)nsc2SC)cc1
  .	i	0.86	44	42	1	111
> Cc1nn(C)c(C(=O)NNC(=O)Nc2cccc(C(F)(F)F)c2)c1Cl
  .	i	0.93	.	.	-1	100
> COc1ccccc1-c1nnc(N)s1
  .	i	0.95	.	.	4	106
> Cn1c(=O)[nH]c(=O)c2c1nc(NCCCO)n2CCOc1ccccc1
  .	i	0.96	.	.	0	106
> CCN1CCCn2c1nc1c2c(=O)n(C)c(=O)n1C
  -0.1	i	1.1	22	101	-1	35
> CC(=O)OC[C@H]1COc2ccc3ccccc3c2[C@H]1N(C)C(C)=O
  .	i	0.95	-40	106	7	104
> CCOc1ccc(-n2cnnn2)cc1S(=O)(=O)NCc1ccccc1
  0.1	i	1.2	35	106	-7	105
> O=C(NCc1cccnc1)c1cnc2sccn2c1=O
  -1.1	i	0.99	.	.	-9	75

(cont.)
The line under a structure holds: GALR2 agonist	HSV replic up	HSV replic up primary fold	Insulin prom inh	Insulin prom inh cell count	PKD1 kinase inh	RGS16-Gao HTS
> O=C(NN=C1CCCCCC1)C(=O)Nc1cccc(Br)c1
  -1.9	i	1	-50	82	-6	57
> CCN=c1scc(C)n1/N=C/c1cc(Br)c(O)c(Br)c1
  .	i	0.96	.	.	0	99
> Cc1ccc(CCNC(=O)c2coc3nc4ccccc4nc23)cc1
  1.0	.	.	.	.	-7	101
> CNC(=S)NNC(=O)c1ccccc1Br
  -1.9	i	0.98	-47	37	-1	93
> CC(C)COc1ccc(N)cc1OCC(C)C
  .	i	1	.	.	-3	102
> COc1ccc(-c2oc3ccccc3c(=O)c2OC(=O)c2ccc(C)cc2)cc1
  -0.2	i	1.1	-14	94	-10	52
> CCCC(=O)NC(=S)Nc1cccc(-c2nc3ncccc3o2)c1
  .	i	1	.	.	-2	101
> CCOc1ccccc1NC(=O)c1cc(Cl)ccc1NC(=O)c1ccco1
  -3.4	i	0.89	60	100	4	104
> Oc1ccccc1/C=N/Nc1ncc(Br)cn1
  -1.1	i	0.81	40	114	-2	108

High-throughput results (PubChem BioAssay)
